# NS1 function inh: qHTS Assay for Inhibitors of Influenza NS1 Protein Function. S. cerevisiae slowed by influenza A NS1, growth recovery by OD600. Potency, µM (doses to about 46.1 µM), inactives show at the top dose activity, positive = more growth. 270,000 tested, 0.4% active; also: actives are rising curves; nearly all actives have a fitted effect of over 50% in size
#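 A cell-based growth assay was used: compounds that relieve NS1-induced slow growth of budding yeast raise OD600. Assay medium was yeast nitrogen base with ammonium sulphate and -URA supplement, pH 6.0, with 2% galactose.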
# RE007 growth inh: qHTS Assay for Inhibitors of the HIV-1 protein Vpr. S. pombe RE007 Vpr strain, BacTiter-Glo ATP luminescence, 24 h; control for the full effect not named in the record. 360,000 tested, 0.21% active. Potency, µM (series often up to 92.2 µM), inactives show at the top dose activity change, negative = less growth. AID 651644, 2012; active = well fitted falling curve with a large enough effect; inconclusive = small, poorly fitted or top-dose-only effect; inactive = no such curve, though single readings can be large or run the other way;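 also: % is scaled to controls: 0 for no effect and ±100 for the full control effect; nearly all actives have a fitted effect of over 50% in size; the assay follows cell death caused by Vpr and the record does not say whether a fall means rescue or toxicity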
#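 Fission yeast RE007 carrying one integrated HIV-1 vpr copy, seeded at OD 0.01 in PMG+AL medium with 23 nL pinned compound. Grown 24 h at 30 degrees; viability read by BacTiter-Glo luminescence after 5 min.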
# SARS PLpro yeast: qHTS of Yeast-based Assay for SARS-CoV PLP. S. cerevisiae expressing SARS-CoV PLpro, growth rescue; control for the full effect not named in the record. Potency, µM (top dose mostly 32.9 µM), for the others: top-dose activity, positive = growth rescue. 330,000 tested, 0.19% active. AID 485353, 2010; also: 0% is about no effect; nearly all actives have a fitted effect of over 55% in size; growth read by luminescence after 48 h
# MARV entry inh: qHTS for inhibitors of binding or entry into cells for Marburg Virus; Marburg virus pseudotyped entry inhibition, cell reporter; control for the full effect not named in the record; about a third of the inactives were read at about 46 µM; Potency, µM (highest dose often 37.8 µM), without a hit: at the highest dose activity change, negative = inhibition, hits mostly inhibitors; 300,000 tested, 1.8% active; AID 540276, 2011; active = well fitted inhibition curve with a large enough effect; inconclusive = small, poorly fitted or top-dose-only effect, or effect the other way; inactive = flat fitted curve, though single readings scatter; tested in HEK293 cells; about a fifth of its hits are not listed in these tables; also: % is scaled to controls: 0 for no effect and ±100 for the full control effect; luciferase read-out
# 2A StopGo: High Throughput Screening for Foot and Mouth Disease Virus Antivirals | human cells with a luciferase reporter of 2A StopGo recoding; control for the full effect not named in the record | Potency, µM (titrated, usually from 57.9 µM), for inactives: at the highest dose signal change, negative = less light | AID 1159524, 2015 | 410,000 tested, 1.2% active; active = well fitted falling curve with a large enough effect; inconclusive = small, poorly fitted or top-dose-only effect; inactive = no such curve, though single readings can be large or run the other way; tested in HEK293T cells; also: % is scaled to controls: 0 for no effect and ±100 for the full control effect; nearly all actives have a fitted effect of over 45% in size; luciferase light after 4 h
# LASV entry inh: qHTS for Inhibitors of binding or entry into cells for Lassa Virus; 300,000 tested, 1.2% active; Lassa virus pseudotype entry inhibition, cell reporter; control for the full effect not named in the record; Potency, µM (doses to about 37.9 µM), for the others: top-dose activity change, negative = inhibition, actives largely listed as inhibitors; active means well fitted inhibition curve with a large enough effect; inconclusive means small, poorly fitted or top-dose-only effect, or effect the other way; inactive means flat fitted curve, though single readings scatter; tested in HEK293 cells; also: % is scaled to controls: 0 for no effect and ±100 for the full control effect; nearly all actives have a fitted effect of over 50% in size; luciferase read-out
# Cruzain inh Det: qHTS Assay for Promiscuous and Specific Inhibitors of Cruzain (with detergent) | Cruzipain (Trypanosoma cruzi), P25779 | purified cruzain, Z-FR-AMC fluorescence, 0.01% Triton | 200,000 tested, 0.43% active | Potency, µM, inactives show max response, negative = inhibition, most hits filed as inhibitors; active = well fitted curve in the direction sought with a large enough effect; inconclusive = small, poorly fitted or top-dose-only effect, or another doubt; inactive = no such curve, though single readings can be large; an effect the other way counts as inactive or inconclusive;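 also: plate controls were neutral wells for no effect and buffer without enzyme for full effect; nearly all actives have a fitted effect of over 40% in size; top concentration of the series not given in the record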
# Target sequence (P25779 123-467 limits assumed): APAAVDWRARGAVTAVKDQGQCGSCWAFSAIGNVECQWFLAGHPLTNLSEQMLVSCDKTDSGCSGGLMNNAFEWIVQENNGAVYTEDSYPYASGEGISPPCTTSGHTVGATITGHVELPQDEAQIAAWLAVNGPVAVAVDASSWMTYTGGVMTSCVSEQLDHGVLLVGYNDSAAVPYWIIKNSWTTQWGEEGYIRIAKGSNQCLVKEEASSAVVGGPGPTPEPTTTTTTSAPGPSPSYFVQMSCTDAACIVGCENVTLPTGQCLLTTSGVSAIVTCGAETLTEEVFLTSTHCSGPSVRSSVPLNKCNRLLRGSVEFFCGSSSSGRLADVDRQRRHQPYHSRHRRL
#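 Read-out: AMC fluorescence (360 nm excitation, 450 nm emission), four reads over 2 min, first-to-third difference used. Conditions: cruzain 1.5 nM, Z-FR-AMC 2 uM, pH 5.5 acetate, 5 mM DTT, 0.01% Triton X-100.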
# Cruzain inh noDet: qHTS Assay for Promiscuous and Specific Inhibitors of Cruzain (without detergent); purified cruzain, Z-FR-AMC fluorescence, no detergent; 200,000 tested, 2.3% active; AID 1476, 2009; Potency, µM, for the others: max response, negative = inhibition, actives largely listed as inhibitors; active = well fitted curve in the direction sought with a large enough effect; inconclusive = small, poorly fitted or top-dose-only effect, or another doubt; inactive = no such curve, though single readings can be large; an effect the other way counts as inactive or inconclusive;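 also: plate controls were enzyme without inhibitor for no effect and buffer without enzyme for full effect; nearly all actives have a fitted effect of over 40% in size; top concentration of the series not given in the record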
#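 Detergent-free condition (0.00005% Triton X-100) in acetate buffer pH 5.5 with DTT. 1.5 nM enzyme and compound were pre-mixed 15 min, then 2 uM Z-FR-AMC substrate added; reaction progress from fluorescence change between first and third reads (60 s).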
# Starred values were filed as active, the others as inactive; u = inconclusive; x = not tested or not shown; [ ] = remark or other dose. Unless noted, calls follow the shape of the dose curve; as a rule, active means well fitted rising curve with a large enough effect; inconclusive means small, poorly fitted or top-dose-only effect; inactive means no such curve, though single readings can be large or run the other way. Potency is read from the fitted curve at half-maximal effect.
entry	SMILES	NS1 function inh	RE007 growth inh	SARS PLpro yeast	MARV entry inh
1	COc1ccc(C2CC(=O)NC(=O)C2)cc1	2.5%	-1.3%	1.1%	-7.8%[46.1 µM]
2	Fc1ccc(-c2nnn(Cc3nc4ccccc4s3)n2)cc1	-98.9%	u	-15.3%	-0.9%
3	CCn1c(C)c(C(C)=O)c(N2CCN(c3cccc(Cl)c3)CC2)nc1=S	9.6%	-2.6%	1.8%	-21.9%
4	COc1ccc(C(=O)ON=C2CCN(c3ccc([N+](=O)[O-])cc3)CC2)cc1	-198.8%	-2.9%	-25.1%	3.2%
5	CCOC(=O)C1(Cc2ccc(OC)cc2)CCN(C(=O)CCn2ccc(C)n2)CC1	-11.1%	5.4%	-1.3%	-1.7%[46.1 µM]
6	COCCOc1cc(NC(=O)c2sccc2Oc2ccc([N+](=O)[O-])cc2F)c(Cl)cc1Cl	18.5%	3.9%	-0.3%	-19.4%
7	Cc1ccc(S(=O)(=O)N2CCN(C(=O)CN3CCOCC3)C2c2ccccc2)cc1 (stereo not given)	-0.8%	17.1%	9.9%	-9.0%
8	O=C(N/N=C/C1CC=CCC1)c1cc(-c2cccnc2)nc2ccccc12 (stereo not given)	x	1.6%	3.2%	-15.6%[46.1 µM]
9	CN(CC(=O)Nc1ccc(Cl)c(C(F)(F)F)c1)C(=O)COC(=O)C1CC2CCCC(C1)C2=O (stereo not given)	x	-10.1%	0.4%	-1.6%[46.1 µM]
10	CCOC(=O)C1CCCN(C(=O)C2c3ccccc3Oc3ccccc32)C1 (stereo not given)	8.9%	1.6%	-9.1%	-23.1%
11	O=C1CNC(=O)N1	5.9%	5.3%[18.4 µM]	-2.6%	x
12	CCSc1ncnc2c1sc1nc3c(cc12)COC(C)(C)C3	9.0%	3.1%	-27.5%	u

entry	2A StopGo	LASV entry inh	Cruzain inh Det	Cruzain inh noDet
1	-15.6%	8.4%[46.1 µM]	x	x
2	18.9%	29.2%	-5.3%	-3.0%
3	u	-3.6%	-6.5%	16.5%
4	u	-7.9%	-10.8%	1.2%
5	8.1%	-26.8%	x	x
6	u	2.2%	1.0%	15.8µM*
7	-12.6%	7.7%	1.3%	13.8%
8	-6.0%	-2.2%[46.1 µM]	x	x
9	-22.7%	-24.3%[46.1 µM]	x	x
10	-7.3%	0.7%	-2.4%	-0.9%
11	-7.9%	x	x	x
12	0.7%	u	-9.6%	u

# 3 entries picked at random from the list so far:
entry	SMILES	NS1 function inh	RE007 growth inh	SARS PLpro yeast	MARV entry inh
1	COc1ccc(C2CC(=O)NC(=O)C2)cc1	2.5%	-1.3%	1.1%	-7.8%[46.1 µM]
9	CN(CC(=O)Nc1ccc(Cl)c(C(F)(F)F)c1)C(=O)COC(=O)C1CC2CCCC(C1)C2=O (stereo not given)	x	-10.1%	0.4%	-1.6%[46.1 µM]
4	COc1ccc(C(=O)ON=C2CCN(c3ccc([N+](=O)[O-])cc3)CC2)cc1	-198.8%	-2.9%	-25.1%	3.2%

entry	2A StopGo	LASV entry inh	Cruzain inh Det	Cruzain inh noDet
1	-15.6%	8.4%[46.1 µM]	x	x
9	-22.7%	-24.3%[46.1 µM]	x	x
4	u	-7.9%	-10.8%	1.2%

# The listing continues:
entry	SMILES	NS1 function inh	RE007 growth inh	SARS PLpro yeast	MARV entry inh
13	Cc1nnc(SCc2ccccc2Cl)c2cc3sccc3n12	x	x	x	x
14	COc1cccc(NC(=O)c2cc3c(=O)n(C)c4ccccc4c3n2C)c1	x	x	x	14.7%[46.1 µM]
15	COc1ccccc1NC(=O)Nc1nnc(C(C)C)s1	4.0%	3.1%	12.2%	u
16	CCN1CCN(c2cc(C)c3cc(NC(=O)/C=C/c4ccc(C)cc4)ccc3n2)CC1	x	x	x	u
17	COc1ccccc1NC(=O)COc1cc(C)nc(C(C)C)n1	4.0%	8.7%	-0.1%	3.2%
18	COc1cc(OC)cc(C(=O)Nc2ccc3oc(-c4ccc(Cl)cc4)nc3c2)c1	x	x	x	x
19	CN(C(=O)CSc1nc(N)cc(N)n1)C1CCS(=O)(=O)C1 (stereo not given)	1.1%	-7.0%	-0.8%	x
20	Cc1nnc(SCC(=O)N(C)c2c(N)n(Cc3ccccc3)c(=O)[nH]c2=O)n1Cc1ccccc1	x	10.8%	-0.8%	u
21	NC(=O)C1=C[C@@H](c2ccc(Br)cc2)C[C@@H](OCCCCO)O1	-0.9%	-5.0%	-2.8%	x
22	CC(NC(=O)c1cccs1)C1CCCO1 (stereo not given)	0.4%	5.2%	u	12.5%
23	Cc1ccc(NC(=O)N2CCCC2C(=O)NCC2CCCCC2)cc1 (stereo not given)	-0.3%	1.6%	3.0%	-4.6%[46.1 µM]
24	Nc1ccc(SC(F)(F)F)cc1C(=O)c1ccccc1	6.6%	u	-10.0%	-28.3%

entry	2A StopGo	LASV entry inh	Cruzain inh Det	Cruzain inh noDet
13	44.2%[activator]	12.3%[46.1 µM]	0.3%	13.3%
14	-14.8%	26.7%[46.1 µM]	0.5%	u
15	32.8%[activator]	u	-5.7%	2.6%
16	-6.7%	21.6%[46.1 µM]	-1.9%	-0.5%
17	-17.8%	18.0%	-1.2%	1.5%
18	-2.6%	-19.7%[46.1 µM]	0.1%	3.4%
19	-23.1%	x	x	x
20	-11.6%	-0.1%[46.1 µM]	x	x
21	-21.9%	x	x	x
22	-5.7%	-1.3%	x	x
23	13.2%	u	x	x
24	-17.3%	-23.9%	-13.8%	4.2%

# (listing goes on)
entry	SMILES	NS1 function inh	RE007 growth inh	SARS PLpro yeast	MARV entry inh
25	N#CCC(=O)N/N=C/c1cccc(Oc2ccccc2)c1	u	3.5%	0.3%	u
26	O=C(O)CCC(=O)N1CCN(c2ncccc2C(F)(F)F)CC1	3.6%	u	0.9%	-16.4%[46.1 µM]
27	CCc1ccc(S(=O)(=O)Nc2cccc(-c3ccc(N4CCOCC4)nn3)c2)cc1	x	x	x	x
28	CCOc1cc(/C=N/NC(=O)CN2CCOCC2)ccc1OCc1ccccc1	-9.9%	x	-8.6%	-16.4%
29	CCCCCn1c(=O)[nH]c2cc(C(=O)NCc3ccco3)ccc2c1=O	6.7%	-2.5%	-2.7%	u
30	O=C(NCCN1CCOCC1)c1cc2cc([N+](=O)[O-])ccc2s1	1.8%	10.0%	0.9%	26.6%[46.1 µM]
31	Cc1onc(-c2ccccc2)c1C(=O)Nc1ccc(S(=O)(=O)Nc2nccs2)cc1	3.8%	11.1%	0.5%	x
32	CCOC(=O)N1CCN(S(=O)(=O)c2ccc(OCC(=O)OC)cc2)CC1	-4.4%	-4.3%	-2.9%	-2.4%
33	Cn1c(=O)c2c(nc(CN3CCN(c4ccc(F)cc4)CC3)n2Cc2ccccc2F)n(C)c1=O	-45.5%	2.4%	-0.7%	16.4µM*
34	Cc1onc(-c2c(Cl)cccc2Cl)c1C(=O)N=C(N)N1CCOCC1	1.7%	-0.3%	0.3%	8.9%[46.1 µM]
35	COC(=O)C(NC(=O)C(C)NC(=O)OCc1ccccc1)C(C)C (stereo not given)	-3.1%	-17.2%	-1.3%	-6.1%
36	COc1cc(CNCc2ccccc2Cl)ccc1OCC(=O)NC1CCCCC1	-5.6%	-7.2%	-1.5%	x

entry	2A StopGo	LASV entry inh	Cruzain inh Det	Cruzain inh noDet
25	6.9%	u	x	x
26	16.0%	-11.2%[46.1 µM]	x	x
27	27.2%	u	-5.8%	12.7%
28	-27.0%	4.5%	-2.9%	-2.2%
29	0.0%	-17.8%	-5.2%	u
30	-3.3%	12.3%	x	x
31	41.6%[activator]	x	x	x
32	x	9.3%	-1.2%	-10.2%
33	2.4%	-23.5%	-1.8%	u
34	-12.8%	-10.3%[46.1 µM]	x	x
35	-16.6%	-0.3%	x	x
36	-28.2%	x	x	x

# Later entries:
entry	SMILES	NS1 function inh	RE007 growth inh	SARS PLpro yeast	MARV entry inh
37	CN1CCN(C(CNC(=O)C(=O)Nc2ccc(F)cc2F)c2ccc3c(c2)OCO3)CC1 (stereo not given)	x	x	x	x
38	Cc1ccnc2nc(C(=O)Nc3ccc4c(c3)OCO4)nn12	-5.5%	-10.3%	-15.2%	u
39	O=C(NC1CC1)c1ccc(NS(=O)(=O)c2ccc(F)cc2)cc1	x	-15.6%	x	u
40	Cc1ccc(NC(=O)CN(C)S(=O)(=O)c2ccc3c(c2)CCC(=O)N3)c(C)c1	x	x	x	6.6%[46.1 µM]
41	Cc1cc(NC(=O)CCC(=O)N(c2ccccc2F)C(C(=O)NC2CCCC2)c2ccccc2)no1 (stereo not given)	-6.7%	-7.5%	-0.7%	-18.0%[46.1 µM]
42	O=C(Nc1ccc(F)cc1Cl)C1CCN(C(=O)Nc2ccccc2)CC1	6.4%	-5.1%	0.3%	x
43	Cc1ccc(SC(C)C(=O)Nc2cccnc2)cc1 (stereo not given)	-9.0%	-9.1%	-0.4%	9.5%
44	CCS(=O)(=O)N1CCN(S(=O)(=O)c2ccc3c(c2)OCCO3)CC1	20.6%	5.2%	u	-11.4%[46.1 µM]
45	Cc1ccc(NC(=O)CSc2nccn2-c2ccccc2)cc1	x	x	x	x
46	CCC(C)n1c(O)c(/C=N/Nc2ccccc2)c(=O)[nH]c1=S (stereo not given)	0.5%	245.6%	-9.6%	4.4%

entry	2A StopGo	LASV entry inh	Cruzain inh Det	Cruzain inh noDet
37	5.3%	-7.5%[46.1 µM]	-2.0%	-4.9%
38	x	u	-4.9%	0.0%
39	4.3%	0.3%	x	x
40	0.0%	-2.7%[46.1 µM]	-0.9%	-2.2%
41	-5.1%	-15.2%[46.1 µM]	x	x
42	-0.9%	x	x	x
43	-23.9%	-0.2%	1.5%	-1.4%
44	-26.2%	4.9%[46.1 µM]	x	x
45	33.4%[activator]	-1.6%[46.1 µM]	-4.5%	-13.0%
46	11.6%	u	-13.4%	-15.0%

# High-throughput results (PubChem BioAssay)
